KCNQ2 inh: KCNQ2 potassium channel inhibitors, primary screen, cell-based, CHO-K1, FluxOR thallium flux, B-score (AID 2156); Potassium voltage-gated channel subfamily KQT member 2 (Rattus norvegicus), O88943; 20 min; active compounds read low; only compounds with negative scores are shown here; some inactives read as strong as hits; B-score at 10 µM; 310,000 tested, 1.1% active;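 active = fluorescence ratio B-score at most minus 3 library SDs, with starting brightness B-score within 2 library SDs, cut at about -5.5 in these data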
Target sequence (O88943 whole entry, looked up): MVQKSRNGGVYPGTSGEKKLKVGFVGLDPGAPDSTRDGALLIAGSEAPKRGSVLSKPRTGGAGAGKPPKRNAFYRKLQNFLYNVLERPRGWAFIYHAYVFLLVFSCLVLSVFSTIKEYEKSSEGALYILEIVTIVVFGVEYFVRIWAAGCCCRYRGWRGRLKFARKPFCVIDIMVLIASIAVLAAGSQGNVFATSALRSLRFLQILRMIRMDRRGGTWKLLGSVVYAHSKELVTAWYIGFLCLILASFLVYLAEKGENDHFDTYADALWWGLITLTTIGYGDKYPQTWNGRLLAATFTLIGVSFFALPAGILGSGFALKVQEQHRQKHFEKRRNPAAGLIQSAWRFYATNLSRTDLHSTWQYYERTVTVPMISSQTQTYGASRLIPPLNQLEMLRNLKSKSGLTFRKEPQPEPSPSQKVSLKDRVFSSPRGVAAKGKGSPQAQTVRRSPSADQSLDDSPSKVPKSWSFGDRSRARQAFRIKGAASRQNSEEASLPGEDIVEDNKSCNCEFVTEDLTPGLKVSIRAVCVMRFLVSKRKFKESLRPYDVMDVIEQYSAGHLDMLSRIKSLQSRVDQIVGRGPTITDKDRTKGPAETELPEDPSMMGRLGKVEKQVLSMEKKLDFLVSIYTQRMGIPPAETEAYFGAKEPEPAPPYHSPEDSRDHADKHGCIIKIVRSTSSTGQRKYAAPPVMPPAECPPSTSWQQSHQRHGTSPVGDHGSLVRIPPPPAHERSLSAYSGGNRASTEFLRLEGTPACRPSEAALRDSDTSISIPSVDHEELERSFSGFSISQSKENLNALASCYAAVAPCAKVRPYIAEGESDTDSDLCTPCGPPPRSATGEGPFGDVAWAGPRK
KCNQ2 inh baseline: second read-out of KCNQ2 inh, no call of its own (marks repeat the call); B-score; measured here: initial fluorescence intensity artifact check;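 brightness before thallium and not channel activity; 0 = typical well and far values either way flag optical interference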
* marks the source's active call; other numbers are inactive results; i = inactive. Some of the compounds tested (hit frequency here may not be typical).

mol	KCNQ2 inh	KCNQ2 inh baseline
CC1CCN(c2oc(-c3ccccc3Cl)nc2C#N)CC1	i	0.5
COc1cc2cc(C(=O)N3CCN(Cc4ccc5c(c4)OCO5)CC3)c(=O)oc2cc1OC	i	1.1
N/C(=N\OC(=O)Cc1ccc([N+](=O)[O-])cc1)c1ccc([N+](=O)[O-])cc1	i	0.84
CCC(CC)c1nn2c(N)c(/C=C3\C=Nc4ccccc43)c(=O)nc2s1	i	0.47
COc1ccc(C(=O)N2CCCC(O)C2)cc1OC1CCN(C(C)C)CC1 (stereo not given)	i	0.9
O=C(c1ccco1)N(Cc1cccc(Br)c1)C1CCS(=O)(=O)C1 (stereo not given)	i	0.72
O=C(CN1CCN(c2ccccc2F)CC1)c1ccc(O)c(O)c1	i	0.31
COc1ccc(-n2c(C)cc(C(=O)Cn3nnc4ccccc4c3=O)c2C)cc1	i	0.16
CN(c1ccccc1)S(=O)(=O)c1cc(C(=O)Nc2nc3ccccc3[nH]2)ccc1Cl	i	0.02
CC(=O)NCCc1cnc[nH]1	i	1.5
O=C(NNC(=O)c1cc(Cl)ccc1O)c1cccc(S(=O)(=O)N2CCOCC2)c1	i	0.1
COc1ccc(COCC(O)CN2CCCC(C(F)(F)F)C2)cc1 (stereo not given)	i	0.07
CCn1cc([N+](=O)[O-])c(C(=O)Nc2c(C)nn(Cc3cccc(F)c3)c2C)n1	i	0.07
O=C(O)c1c[nH]c2c(C(F)(F)F)cccc2c1=O	i	-2.3
COC/C=C/C1=CC2=CC(=O)C(C)(OC(=O)c3cnc4ccccc4n3)C(=O)C2=CO1 (stereo not given)	i	0.1
Cc1cccc(C)c1NC(=O)CSc1nnc(Cn2nnc(-c3ccccc3)n2)n1-c1ccccc1	i	-1.3
Cn1c(Cc2ccccc2)nnc1SCC(=O)Nc1ccc2c(c1)OCCO2	i	-1.8
C/C(=N/Oc1nc(C)cc(C)n1)c1ccc(Br)cc1	i	0.87
COc1ccccc1CNC(=O)c1cc(C(C)C)nc2ccccc12	i	-0.86
CCC(=O)N1CCc2cc(Br)cc(S(=O)(=O)N3CCC(C(=O)NC(C)C)CC3)c21	i	0.71
CCCN1CCc2nc(SCC(=O)Nc3ccc(C)c(Cl)c3)[nH]c(=O)c2C1	i	-0.01
CC(=O)c1ccc(NC(=O)CSc2nc(=O)n3cccc(C)c3n2)cc1	i	1.2
O=C(CN1C(=O)c2ccccc2S1(=O)=O)NCCSCc1c(F)cccc1Cl	i	0.45
N#CCC(=O)N/N=C/c1c2ccccc2cc2ccccc12	i	0.45
CC(NC(=O)CSc1nc2sc3c(c2c(=O)n1-c1ccccc1)CCCC3)c1ccccc1 (stereo not given)	i	1.9
O=C(CCN1CCN(S(=O)(=O)c2ccc(Br)cc2)CC1)Nc1ccccc1F	i	1.5
O=C(C[N+]12CC[N+](CC(=O)c3ccc(F)cc3)(CC1)CC2)c1ccc(F)cc1	i	-0.57
Cc1ccc(C)c(NC(=O)Cn2nnc(-c3ccc(N4CCOCC4)cc3)n2)c1	i	0.28
COc1ccc(C(C(=O)NC2CCCC2)N(CCCO)C(=O)Cn2nnc(-c3ccc(C)o3)n2)cc1 (stereo not given)	i	-1.6
CCOCCc1c(O)nc(SCC(=O)NCc2ccco2)[nH]c1=O	i	0.42
CC(=O)Oc1cccc(C(=O)Nc2c[nH]c(=O)[nH]c2=O)c1	i	-0.63
Cc1ccccc1N1CC(C(=O)O)CC1=O (stereo not given)	i	-0.67
CCC(Sc1nc2ccccc2s1)C(=O)Nc1cc(C)on1 (stereo not given)	i	0.98
COc1ccc(CCNC(=O)CN2CCC(C(N)=O)CC2)cc1	i	1.7
Cc1cccc(N2CCN(S(=O)(=O)c3ccc(-c4ccc(=O)[nH]n4)o3)CC2)c1C	i	-0.49
CC(C)c1ccc2c(c1)C(N1CCN(C)CC1)Cc1cccnc1S2 (stereo not given)	i	1.1
COc1ccc(N2CCN(c3ccc(Cl)nn3)CC2)cc1	i	-1
CCOP(=O)(OCC)C(Nc1ccc(F)cc1)c1ccccc1 (stereo not given)	i	0.06
Cc1ccc(NC(=O)CSc2nnc(-c3ccco3)o2)cc1	i	-1.2
O=C(CCCCCn1c(=S)[nH]c2cc3c(cc2c1=O)OCO3)NCCc1ccccc1	i	-2.1
O=C(CCNC(=O)c1ccccc1)OCC(=O)c1cccc(Cl)c1	i	0.87
CCCCc1cc(=O)oc2cc(OCC(=O)N(CC)CC)ccc12	i	1.4
COc1ccc(CNC(=O)c2sc3nc4c(c(C(F)(F)F)c3c2N)CCC4)cc1OC	i	-0.67
O=[N+]([O-])c1ccc(-n2nnnc2-c2ccccc2)c([N+](=O)[O-])c1	i	0.26
Cc1ccc(Nc2nc(N)c([N+](=O)[O-])c(NCCO)n2)cc1C	i	-0.19
COc1ccc(N2CCN(C(=O)C3CCC(Cn4c(=S)[nH]c5ccccc5c4=O)CC3)CC2)cc1 (stereo not given)	i	0.7
Cc1nc([N+](=O)[O-])cn1CC(O)c1ccccc1 (stereo not given)	i	-0.75
CC(=O)NC(Cc1ccc(F)c(F)c1)C(=O)NC1CCN(S(=O)(=O)c2ccc(C)cc2)CC1 (stereo not given)	i	-1.8
Cc1ccc(N2CCN(CC(O)COc3ccccc3)CC2)cc1 (stereo not given)	i	0.23
COc1ccc(CN(CC(=O)NC2CCCC2)C(=O)c2onc(C(N)=O)c2N)cc1	i	-1.4

Five compounds out of the list, arranged by formula weight, smallest number first.
mol	KCNQ2 inh	KCNQ2 inh baseline
CC(=O)Oc1cccc(C(=O)Nc2c[nH]c(=O)[nH]c2=O)c1	i	-0.63
COc1ccc(CCNC(=O)CN2CCC(C(N)=O)CC2)cc1	i	1.7
CCCCc1cc(=O)oc2cc(OCC(=O)N(CC)CC)ccc12	i	1.4
CCOCCc1c(O)nc(SCC(=O)NCc2ccco2)[nH]c1=O	i	0.42
COc1ccc(N2CCN(C(=O)C3CCC(Cn4c(=S)[nH]c5ccccc5c4=O)CC3)CC2)cc1 (stereo not given)	i	0.7

3 entries drawn at random from those above:
mol	KCNQ2 inh	KCNQ2 inh baseline
COc1ccc(CCNC(=O)CN2CCC(C(N)=O)CC2)cc1	i	1.7
Cc1ccc(C)c(NC(=O)Cn2nnc(-c3ccc(N4CCOCC4)cc3)n2)c1	i	0.28
COc1ccc(N2CCN(C(=O)C3CCC(Cn4c(=S)[nH]c5ccccc5c4=O)CC3)CC2)cc1 (stereo not given)	i	0.7

Other records follow:
mol	KCNQ2 inh	KCNQ2 inh baseline
CC1CN(C(=O)c2cc(COc3c(F)cccc3F)on2)CCN1C (stereo not given)	i	-0.44
CCN(c1ccc(F)cc1)S(=O)(=O)c1cccc2nsnc12	i	2.3
Cc1c(C(=O)N(C)Cc2cccc(F)c2)oc2c(Cl)cccc12	-7.7*	0.08*
COc1ccc(NS(=O)(=O)c2cccc3nsnc23)cc1Cl	i	-0.59
COc1ccc(C2Nc3ccccc3C(=O)N2Cc2ccccc2)cc1CSc1ccccn1 (stereo not given)	i	-0.03
CCOc1ccc(NC(=O)c2cccc(NC(=O)c3ccccc3)c2)cc1	i	3
Cc1ccc(NC(=O)CCn2nnc3ccccc32)c(C)c1	i	0.49
CN1CCN(c2ccccc2NC(=O)c2ccc(-c3cccc(Cl)c3)o2)CC1	i	0.43
Cc1ccc(Cl)c(OCCCCN(C)Cc2ccccc2)c1	i	-2
Cc1nn(-c2ccccc2)c(C)c1/C=C/C(=O)OC(C)C(N)=O (stereo not given)	i	0.54
Cc1ccc2nc(N3C(=O)C(O)=C(C(=O)c4ccco4)C3c3ccc(O)cc3)sc2c1 (stereo not given)	i	-0.77
O=C(C1CCCN(Cc2cc(Br)ccc2O)C1)N1CCCCC1 (stereo not given)	i	0.56
C/C(=N\NC(=O)c1ccccc1Cl)c1ccccn1	i	-1.8
COc1ccc(/C=N/NC(=O)c2nn(-c3ccc(C)c(C)c3)c(=O)c3ccccc23)cc1	i	-0.15
CCCC(=O)c1cn(CC(=O)OC)c2ccccc12	i	0.75
O=C(Nc1nc(-c2cc(F)ccc2F)cs1)C1=COCCO1	i	-0.67
CC1CCCCN1S(=O)(=O)c1ccc(N(C(=O)c2cnccn2)C(C(=O)NC2CCCCC2)c2cccs2)cc1 (stereo not given)	i	-1
CC(=O)COC(=O)C1CCN(S(=O)(=O)c2cc([N+](=O)[O-])ccc2Cl)CC1	i	0.39
O=C(Nc1ccc(N2CCN(C(=O)c3ccco3)CC2)cc1)c1ccco1	i	0.92
Nc1cc(-c2cccc(Br)c2)nn1Cc1ccccc1	i	1.1
CCOC(=O)C1C(=O)C=C(c2ccc([N+](=O)[O-])cc2)CC1c1ccccc1 (stereo not given)	i	0.15
COc1ccc(CCN2C(=O)N(c3ccc(OC)cc3)C(=O)C2CC(=O)Nc2ccccc2)cc1 (stereo not given)	i	-1.4
CCCCOC(=O)c1ccc(NC(=O)c2ccccc2OC)cc1	i	0.29
Cc1ccc(C)c(C(=O)COC(=O)CCN2C(=O)C3C4CCC(C4)C3C2=O)c1 (stereo not given)	i	0.23
CC(=O)NCCc1ccc(S(=O)(=O)N2CCN(c3nc(-c4ccccc4)c(C)s3)CC2)cc1	i	-0.65
Cc1csc(NC(=O)CSc2nc3ccccc3s2)n1	i	-0.8
O=C(c1ccco1)N1CCN=C1SCc1ccccc1Cl	i	0.33
COc1ccccc1NC(=O)C1CC(C)OC1=O (stereo not given)	i	1.8
CCc1nnc(NC(=O)CSc2nnc(-c3ccccc3O)n2-c2ccc(C)cc2C)s1	i	-0.67
Cc1oc2c(cc(NS(=O)(=O)c3cccs3)c3ccccc32)c1C(=O)OC(C)C	i	0.43
COc1ccc(NC(=O)CSc2nnc(C3CCCCC3)n2N)cc1	i	1.1
CC(C)(CC(=O)O)CC(=O)Nc1cc(C(F)(F)F)cc(C(F)(F)F)c1	i	-0.25
N#C/C(=C/c1ccccc1[N+](=O)[O-])C(=O)NCc1ccco1	i	1
N#C/C(=C/c1cc[nH]c1)C(N)=S	i	-0.33
CCn1c(SCC(=O)N/N=C/c2ccc(O)c(OC)c2)nc2ccccc21	i	-1.1
O=C(CNCc1ccccn1)Nc1cc(C(F)(F)F)ccc1N1CCOCC1	i	-0.27
COc1cccc(NC(=O)Cn2c(CCC(=O)O)ccc2-c2ccc(C)cc2)c1	i	2.6
CCOC(=O)CSc1nc2ccc(N3CCOCC3)cc2c(=O)n1Cc1ccccc1	i	0.52
Cc1ccccc1-n1nc2c(c1NC(=O)c1c(-c3ccccc3Cl)noc1C)CS(=O)(=O)C2	i	0.39
COc1cccc(CNC(=O)c2cnc(-c3ccccn3)nc2C(F)(F)F)c1	i	0.02
COc1ccc2nc(SCC(=O)Nc3c(C)cccc3C)[nH]c2c1	i	0.14
NS(=O)(=O)c1ccc(NC(=O)C2CCCO2)cc1 (stereo not given)	i	1.3
O=C(Nc1ccccc1C(=O)O)c1cccc(N2C(=O)c3ccccc3C2=O)c1	i	0.41
CCCC(C(=O)NC1CCCC1)N(Cc1ccc(F)cc1)C(=O)c1snc(C(N)=O)c1N (stereo not given)	i	-1.2
Cc1ccnc(NS(=O)(=O)c2ccc(NS(C)(=O)=O)cc2)n1	i	-0.13
Cn1cc(CN2CCN(Cc3ccccc3)CC2)c(-c2cccc(Cl)c2)n1	i	1.4
O=c1[nH]cccc1-c1nc2ccccc2[nH]1	i	-0.89
Clc1cccc(N2CCN(Cc3ccc(Br)o3)CC2)c1	i	-0.26
COc1ccc(C2Nc3ccccc3C(=O)N2Cc2ccccc2)cc1 (stereo not given)	i	-0.54
O=C(N/N=C/c1cc(Br)cs1)c1ccccc1[N+](=O)[O-]	i	0.55

Continuation.
mol	KCNQ2 inh	KCNQ2 inh baseline
O=C(c1ccccc1)c1c(O)cc(-c2ccccc2)oc1=O	i	-0.08
CCn1cc(CN(C)C(=O)/C=C/c2ccc([N+](=O)[O-])cc2)c(C)n1	i	-0.05
COc1ccc(C2C(C(C)=O)=C(O)C(=O)N2CCc2c[nH]c3ccccc23)cc1 (stereo not given)	i	-1.1
Cc1csc(NC(=O)CSC2=NS(=O)(=O)c3ccccc3N2)n1	i	0.01
CC1(C)CC(=O)C([N+](=O)[O-])=C(NCCCC(=O)O)C1	i	0.82
COc1cccc(CN(C)C(=O)CNC(=O)c2cccs2)c1OC	i	-0.64
O=S(=O)(Nc1ccc(S(=O)(=O)Nc2ncccn2)cc1)c1ccccc1	i	1.3
COc1ccccc1NC(=O)Nc1nc(CC(=O)Nc2ccc(OC)c(OC)c2)cs1	i	0.87
CN1C2CCC1CC(NC(=O)c1cccc(C(F)(F)F)c1)C2 (stereo not given)	i	0.06
Cn1c(-c2cccc([N+](=O)[O-])c2)cnc1NCc1cccc([N+](=O)[O-])c1	i	-1.3
COc1ccc(CNC(=O)CSc2nc3[nH]ncc3c(=O)n2-c2ccccc2Br)cc1	i	0.03
CC(C)CC(=O)NCCNC(=O)c1cc(OCC(F)(F)F)ccc1OCC(F)(F)F	i	0.11
Cc1cccc(CC2CC(=O)N(c3ccc(C)cc3Br)C2=O)c1 (stereo not given)	i	0.02
CC(C)OCCCNC(=O)CN1CCN(Cc2ccccc2Cl)C1=O	i	1.3
Cc1cc(C(=O)N2CC=C(c3ccccc3)CC2)c2ccccc2n1	i	1.2
C#CCN(CC=C)C(=O)C1CCC(=O)N(CCCc2ccccc2)C1 (stereo not given)	i	-0.08
CCc1cccc2c1NC(=O)[C@]21[C@@H]2C(=O)N(Cc3ccccc3)C(=O)[C@@H]2[C@@H]2CCCN21	i	-0.51

Screening data as filed in PubChem.
